# VACV E9 pol inh = vaccinia E9 polymerase processive synthesis inhibitors, primary screen, biochemical, absorbance. Vaccinia virus DNA polymerase (E9) processive complex. in vitro processive DNA synthesis, absorbance read-out; active compounds read low; some inactives read as strong as hits. normalized absorbance, % (test concentration not listed). 46,000 compounds, 0.94% hits. AID 493162, 2011;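 active means replicate mean up to 90% and picked by the depositor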;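 further: 100% = median of the test wells of a plate; 100 nL library stock went into each well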
# * marks the source's active call; other numbers are inactive results. The list is partial; rates above refer to the full screens.
SMILES,VACV E9 pol inh
CCc1cccc(C)c1-n1c(C)cc(/C=C2\C(=O)NC(=S)N(c3ccccc3F)C2=O)c1C,100
CCOC(=O)c1c(NC(=O)CCCC(=O)O)sc(C)c1C,98
CN(C)S(=O)(=O)c1ccc2nc(NC(=O)/C=C/c3ccccc3)sc2c1,104
CC1(C)COC(N(C(=O)NC2CCCCC2)c2cccc(Cl)c2)=N1,103
COc1ccc(Cl)cc1-n1c(SCc2cccc(Cl)c2)nnc1-c1cc2occc2n1C,108
Cc1c(O)ccc2c(=O)c(Oc3ccccc3)c(C(F)(F)F)oc12,101
COC(=O)c1cc2sccc2n1CC(=O)Nc1ccc(C(C)C)cc1,102
O=C(Nc1ccccc1-c1nc2ccccc2o1)C1CCCCC1,101
O=C(NCc1nc2ccccc2s1)c1cc(F)cc2c1OCOC2,102
CC1=CCC(C2OCC3CC=C(C)C2C3)CC1 (stereo unspecified),102
O=C(CSC1=NCCS1)NC12CC3CC(CC(C3)C1)C2,102
COc1ccc(C(=O)Nc2ccc(N3CCN(c4ccc(OC)cc4)CC3)c(C#N)c2)cc1,107
O=C(c1cc2nc(-c3ccco3)cc(C(F)(F)F)n2n1)N(Cc1ccccc1)Cc1ccccc1,100
O=C1NC(=O)C(=CC2CC=CCC2)C(=O)N1 (stereo unspecified),103
O=c1c(Oc2ccccc2F)coc2cc(O)ccc12,91
CCOC(=O)N1CCC(NC(=O)c2sc3nc4n(c(=O)c3c2C)CCCC4)CC1,95
CCCOC(=O)c1cc(-c2ccc(/C=C3\C(=O)N(CCO)C(=O)C(C#N)=C3C)o2)ccc1Cl,97
Cc1ccc(-c2nc(C#N)c(N(C)C)o2)cc1,88
CCOC(=O)c1ccc(OCC2NCCc3cc(OC)c(OC)cc32)cc1 (stereo unspecified),102
COc1cccc(-n2ccnc2SCC(=O)NCc2ccccc2)c1,100
Cc1ccccc1NC(=O)c1ccccc1NC(=O)c1ccccc1,101
CC(C)c1ccc(OCC(O)CN2CCCCC2)cc1 (stereo unspecified),103
C=C(C)Cc1c(C)nc(-c2ccc(Cl)cc2)nc1OC(=S)N(CC)CC,112
Clc1ccc(-c2nc(C=Nc3ccccc3)c3ccccn23)cc1,100
Brc1nc(Br)n(Cc2ccccc2)n1,97
O=C(Nc1ccccc1I)C1CC(=O)N(c2ccccc2)C1 (stereo unspecified),100
CC(=O)N1CCc2cc(S(=O)(=O)NC(CC(C)C)C(=O)NCc3ccc(Cl)cc3)ccc21 (stereo unspecified),102
CC(=O)Nc1sc(C)nc1-c1ccccc1,99
Cc1cc(C)n(CC(O)COc2cccc3ccccc23)n1 (stereo unspecified),98
COc1ccc(C(=O)N2CCC(Cc3ccccc3)CC2)cc1OC,100
CC1CCN(CN2CC(Cn3c4ccccc4c4ccccc43)OC2=O)CC1 (stereo unspecified),100
CCN(CC)c1ccc(C(=O)OCC(=O)NCc2ccccc2Cl)cc1,100
COc1cccc(-c2csc(/C(C#N)=C\Nc3ccc(NC(C)=O)cc3)n2)c1,101
Cc1c2cc(-c3cccs3)sc2nc2c(O)cc(=O)[nH]c12,100
CCOC(=O)CCCn1c(=O)c2cccn2c2ccccc21,90
Cc1cc(C)cc(NS(=O)(=O)c2ccc3c(c2)OCCN3C(=O)c2ccco2)c1,94
CCS(=O)(=O)N1CCN=C1SCc1cccc(C)c1,91
CC1CCCC(C)N1CCNC(=O)Nc1ccc(Cl)cc1 (stereo unspecified),88
COc1ccc2c(C=NC(C)(C)C)c(O)n(Cc3ccccc3)c(=O)c2c1,103
CCOc1cccc2cc(C(=O)Nc3nccs3)c(=Nc3ccc(C)c(C)c3)oc12,98
CC(C)n1c(COc2ccccc2)nc2ccccc21,100
N#Cc1c(-c2ccccc2)no[n+]1[O-],99
C/C(=C\c1nsc(Nc2ccccc2)n1)NCc1ccc(C)cc1,102
CCCN(CCC)C(=O)c1cn(C)c2ccc(S(=O)(=O)N(CC)CC)cc2c1=O,104
CC1CCCC(C)N1Cc1cn2ccccc2n1 (stereo unspecified),91
Fc1ccc(Nc2ncnc3c2oc2ccccc23)cc1,100
O=C(CCC1CCCC1)NCc1nc(-c2ccccc2)no1,104
Cc1nc(S(=O)(=O)Cc2ccccc2Cl)nc2c1CCC2,92
CCn1cc(C(=O)NCc2ccccc2Cl)c(=O)c2cc(S(=O)(=O)N(C)C)ccc21,102
O=C(OCc1ccccc1)c1ccncc1,102
OCC1CCCCN1C(=S)NCCc1ccccc1 (stereo unspecified),100
O=C(COc1ccccc1Cl)N1CCc2ccccc2C1,94
COc1cccc(NC(=O)CCCN2C(=O)/C(=C\c3ccco3)SC2=S)c1,100
CC(C)C(=O)Oc1cc(OC(=O)C(C)C)c2ccccc2c1,101
CCCc1nc2sc3c(N4CCCC4)ncnc3c2c2c1CCCC2,100
CCN(CC)C(=O)COc1cc(C)c(Cl)c(C)c1,101
CCC(=O)NCc1nc2ccccc2n1CC(C)C,100
CC1CCCCC1NC(=O)c1ccc2c(=O)n(CCCN3CCCC3=O)c(=S)[nH]c2c1 (stereo unspecified),101
O=C(OCC(=O)N1CCCC1)c1ccccc1O,100
C=C(C)c1cccc(C(C)(C)NC(=O)N2CC(C)OC(C)C2)c1 (stereo unspecified),100

# Pulled one by one from above, 10 records:
SMILES,VACV E9 pol inh
CCCc1nc2sc3c(N4CCCC4)ncnc3c2c2c1CCCC2,100
OCC1CCCCN1C(=S)NCCc1ccccc1 (stereo unspecified),100
CCN(CC)C(=O)COc1cc(C)c(Cl)c(C)c1,101
CC1CCCC(C)N1Cc1cn2ccccc2n1 (stereo unspecified),91
CC(C)n1c(COc2ccccc2)nc2ccccc21,100
CC1CCCCC1NC(=O)c1ccc2c(=O)n(CCCN3CCCC3=O)c(=S)[nH]c2c1 (stereo unspecified),101
O=C(OCC(=O)N1CCCC1)c1ccccc1O,100
CC(C)C(=O)Oc1cc(OC(=O)C(C)C)c2ccccc2c1,101
O=C(OCc1ccccc1)c1ccncc1,102
O=C(COc1ccccc1Cl)N1CCc2ccccc2C1,94

# Remaining list, next part
SMILES,VACV E9 pol inh
O=C1Cc2ccccc2N1c1c(Cl)cccc1Cl,100
CC(=S)/C=C1\Sc2ccccc2N1C,101
CCCc1ccc(S(=O)(=O)N2CCC(c3ccc(=O)n(-c4ccccc4)n3)CC2)cc1,104
CN(Cc1ccccc1)C(=O)Cn1c(=O)c2cccn2c2cccnc21,95
CNC(=O)N(c1ccccc1)c1ccccc1,99
COc1cccc(-c2nnc(-c3ccccc3)o2)c1,100
Cc1c(C)c(/C=N/O)c(C)c(C)c1/C=N/O,80
O=C(O)C(CO)N1Cc2ccccc2C1=O (stereo unspecified),101
CCCc1ccc(OCC(O)CN2CCN(C)CC2)cc1 (stereo unspecified),100
NNC(=O)CC1=Nn2c(nnc2-c2cccs2)SC1,99
CCOC(=O)c1c(O)c2c([nH]c1=O)CCCC2,100
O=C(CCC1=NS(=O)(=O)c2cc(Br)cnc2N1)N1CCOCC1,103
COC(=O)c1ccc2c(c1)nc(C)n2CCO,100
COc1ccc(NS(=O)(=O)c2cccc(C(=O)O)c2)cc1,94
Cc1ccc(N2CCN(C(=O)c3sc4nc5n(c(=O)c4c3C)CCCC5)CC2C)cc1 (stereo unspecified),100
CC(C)(C)c1ccc(-c2nnc(-c3ccccc3NC(=O)CCC(=O)O)o2)cc1,99
NC(CC(=O)O)C1CC=CCC1 (stereo unspecified),91
O=C(NC(=S)Nc1ccc(Nc2ccccc2)cc1)c1ccco1,100
CC(C)(CC(=O)N1CCN(c2ncccc2C(F)(F)F)CC1)Sc1ccc(Cl)cc1,98
CC1(C)Cc2ccccc2C(c2sc3nc4c(cc3c2N)CCCCC4)=N1,100
Cc1noc(NS(=O)(=O)c2ccc(NC(=O)c3ccncc3)cc2)c1C,101
Cn1sc(=Nc2ccccc2)nc1-c1ccccc1,102
CCOC(=O)C(C)Oc1ccc(OCc2ccccc2)cc1 (stereo unspecified),101
O=C(CSc1nncn1-c1ccccc1)Nc1c(F)c(F)c(F)c(F)c1F,100
C[C@@]1(C2CCCC2)Cc2cc(OCC(=O)O)c(Cl)c(Cl)c2C1=O,100
COc1ccc(C(=O)NCC(=O)O)cc1OC,100
COc1ccc(-c2nsc(SCC(=O)N3CCCC3)n2)cc1,90
Cc1ccc2nc(NC(=O)C(F)(F)F)sc2c1,89
O=C1CCCC2=C1C(c1cccs1)CC(=O)N2c1ccccc1 (stereo unspecified),96
CCOC(=O)c1c(C)nc2c(c1-c1ccc(OC)c(OC)c1)C(=O)c1ccccc1-2,100
CN(Cc1ccccc1)S(=O)(=O)c1ccccc1,100
CCC1C(=O)C(C)(C)C(=O)OC1c1cccc(Br)c1 (stereo unspecified),100
NCCC(O)C(=O)N[C@@H]1C[C@H](N)[C@@H](O[C@H]2O[C@H](CN)[C@@H](O)[C@H](O)[C@H]2N)[C@H](OC2O[C@H](CO)[C@H](O)[C@H]2O)[C@H]1O (stereo partly specified),100
CCc1ccc(OCC(=O)N(CC)CC)cc1,96
O=C1c2ccccc2C(=O)C1(Nc1ccccc1)c1ccccc1,101
CCOc1ccc2nc(NC(=O)CCc3ccccc3)sc2c1,99
COc1ccc(NC(=O)CSc2nc(O)cc(=O)[nH]2)cc1,100
O=C1CCC(=O)N1c1ccc(Cl)cc1,101
O=C(COc1cc(Cl)ccc1Cl)NCc1ccccc1,100
N#Cc1ccc(COC(=O)Cc2ccccc2)cc1,94

# An excerpt from above in order of molar mass, lowest first.
SMILES,VACV E9 pol inh
O=C1CCC(=O)N1c1ccc(Cl)cc1,101
COc1ccc(C(=O)NCC(=O)O)cc1OC,100
N#Cc1ccc(COC(=O)Cc2ccccc2)cc1,94
Cc1ccc2nc(NC(=O)C(F)(F)F)sc2c1,89
Cn1sc(=Nc2ccccc2)nc1-c1ccccc1,102
O=C1CCCC2=C1C(c1cccs1)CC(=O)N2c1ccccc1 (stereo unspecified),96
CCC1C(=O)C(C)(C)C(=O)OC1c1cccc(Br)c1 (stereo unspecified),100
CCOc1ccc2nc(NC(=O)CCc3ccccc3)sc2c1,99
COc1ccc(-c2nsc(SCC(=O)N3CCCC3)n2)cc1,90
C[C@@]1(C2CCCC2)Cc2cc(OCC(=O)O)c(Cl)c(Cl)c2C1=O,100

# Later entries:
SMILES,VACV E9 pol inh
Cc1nnc(-c2ccccc2)c(=O)n1/N=C/c1cccs1,93
O=C(CSc1ccccn1)c1ccc(OCc2ccc(F)cc2)cc1,100
CC1Cc2ccccc2N1C(=O)CSc1nc(-c2ccco2)cc(C(F)(F)F)n1 (stereo unspecified),84
Nc1ccc(C2(c3ccc(N)cc3)CCCCC2)cc1,102
COc1ccccc1Nc1nc(N)nc(CN2CCc3ccccc3C2)n1,101
CCCOc1ccc2c(-c3ccccc3)cc(=O)oc2c1,100
Cc1nc(Oc2ccc(NC(=O)c3ccccc3)cc2)c2c3c(sc2n1)CCC3,100
Cc1ccc(S(=O)(=O)NC(=O)N2CCCN(c3ccc(C(F)(F)F)cn3)CC2)cc1,92
O=C(Nc1ccc2c(c1)OCCO2)c1cccs1,103
Cn1c(C(=O)O)c(CC(=O)N2CCCCCC2)c2ccccc21,114
N#C/C(=C1/CCCCCN1)c1nc2ccccc2s1,96
Cc1nc(SCC(=O)C(C)(C)C)[nH]c(=O)c1Cc1c(Cl)cccc1Cl,99
COc1ccccc1NC(=O)Cn1cnc2c(cnn2C(C)(C)C)c1=O,93
CC(C)(C)c1cc(C(C)(C)C)cc(S(=O)(=O)CCc2ccccn2)c1,101
Cc1ccc2c(c1)N(C(=O)Nc1ccccc1)CC(C)O2 (stereo unspecified),111
Cc1nc2ccccc2n1S(=O)(=O)N(C)C,100
CS(=O)(=O)c1ccc(C(=O)O)c(O)c1C(=O)O,100
CC1(C)CC(=O)C=C(NCc2ccc(C(=O)O)cc2)C1,100
Cc1nc2c(C(=O)NCC3CCCO3)cnn2c(C)c1Cc1ccccc1Cl (stereo unspecified),102
Cc1[nH]c2ccccc2c1Cc1nc2ccccc2[nH]1,100
CC(C)N1C(=O)C2ON(c3ccccc3)C(c3cccs3)C2C1=O (stereo unspecified),99
CCc1ccccc1NC(=O)c1cc2c(=O)n3ccccc3nc2n1C,106
CSc1ncc(CO)n1Cc1ccccc1,84
CCC(=O)Nc1ccccc1C(=O)OCC(=O)Nc1ccc(S(N)(=O)=O)cc1,100
O=C(N/C=N/O)c1ccccc1-n1ccnc1,93
CCc1cccc(NC(=O)C(Cc2ccccc2)NS(=O)(=O)c2ccc3c(c2)CCC(=O)N3)c1 (stereo unspecified),97
CCC12CN(S(=O)(=O)c3ccccc3)CC(CC)(CN(S(=O)(=O)c3ccccc3)C1)C2=O,100
Cn1nc(-c2ccccc2)c(C(O)c2cccs2)c1Cl (stereo unspecified),90
CCCNC(=O)c1ccccc1N,100
COc1ccc(Oc2ccccc2C#N)cc1,82
CCOc1cc(/C=C2\C(=N)N3C(C)=CSC3=NC2=O)ccc1OCc1ccc2c(c1)OCO2,100
CCN(c1ccccc1)S(=O)(=O)c1ccc2[nH]cc(C(=O)N3CCC(C)CC3)c(=O)c2c1,109
N/C(=N\c1nc2ccccc2s1)NC(=O)c1cccc(Cl)c1,99
O=C(Nc1ccn(-c2ccccc2)n1)c1ccccc1Br,108
O/N=C/c1c(OCc2ccccc2)ccc2ccccc12,102
Cc1cccc(N2C(=NC(=O)c3ccc(Br)cc3)SC3CS(=O)(=O)CC32)c1 (stereo unspecified),100
Fc1cccc2ncnc(OCc3ccccc3)c12,100
CCOC(=O)c1cc(Br)ccc1OCc1ccccc1Cl,100
COc1ccc(C(=O)CSC2=NCCc3ccccc32)cc1,81
Cc1ccnc(SCC(=O)N2CCc3ccccc3C2)n1,100
Cc1cc(C)nc(SCC(=O)C2CC2)n1,101

# Assay outcomes (PubChem BioAssay)
